# T cruzi repl – blocks replication of Trypanosoma cruzi | T. cruzi beta-gal in NIH3T3, luminescence, 90 h | inhibition, % (concentration not given with the values) | 1.4% of 300,000 active | AID 1885;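 active = mean inhibition across valid replicates above about 55%, limit read from the data; inconclusive = mean below that limit but half or more replicates reach it; inactive = mean below it, under half of replicates reach it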;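 note: signal also drops with host cell toxicity which is not excluded here; 0% = plate median of DMSO wells and 100% = zero luminescence signal; higher percent means less beta-gal luminescence so fewer parasites; stock transfer was 50 nL into about 50 µL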
# Vif A3G – HIV-1 Vif–A3G interaction blockers – biochemical, TR-FRET, GST-Vif 1-94, biotin-A3G peptide, dose response retest, primary screen (AID 1117319); 0.57% of 260,000 active; one-dose inhibition, %; IC50 in µM for titrated hits; TR-FRET GST-Vif / biotin-A3G peptide binding; higher % means a stronger effect; test concentration not given here; strong numbers were not always called active;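 active = above the screen mean plus three standard deviations and confirmed in dose response; inconclusive = results disagree or hit not tested in dose response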;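 note: Vif residues 1-94 fused to GST binding biotinylated APOBEC3G peptide 110-148; 0% = full assay without inhibitor and 100% = GST in place of GST-Vif; retest series ran down from 100 µM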
# AF4-AF9 inh – blocks AF4 peptide binding to human AF9; P42568; AlphaScreen, biotin-AF4 peptide binding to FLAG-AF9; inhibition, % at 10 µM; 0.47% of 350,000 active;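 active = every replicate reaching a set inhibition limit, whatever the replicate mean, cut at about 25% in these data; inconclusive = mean inhibition reaches that limit but some replicates miss it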;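 note: 0% = plate neutral control median and 100% = total signal loss; the record names both 10 and 1 µM as test concentration; the first replicate is given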
# Calb FLC – C. albicans growth modulation with fluconazole | C. albicans CaCi-2 (fluconazole-resistant clinical isolate) + fluconazole, Alamar Blue growth, 48 h | 0.57% of 300,000 active | growth inhibition, % (concentration not given with the values) | AID 1979;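 active = most replicates above 75%; inconclusive = exactly half above 75%; inactive = most below 75%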;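 note: all wells also contain fluconazole at 8 µg/ml as a sub-toxic cotreatment; 0% = median of DMSO wells and 100% = median of geldanamycin control wells; wells of about 8 µL received 7.5 nL stock; the first replicate is given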
# A1 inh – inhibitors of the anti-apoptotic protein A1, read as caspase activation. MEF A1-2A-BIM cells, Caspase-Glo 3/7 luminescence, 3 h; percent of clofoctol response, vehicle zero. AID 2462. 0.066% of 330,000 active. caspase activation, % (concentration not given with the values);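 active = over half of replicate activation scores above 10%, or exactly half above 10 with the replicate mean above 10; inconclusive = replicate mean below 10 yet half the replicates above 10; inactive = over half of replicates below 10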;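 note: wells of about 30 µL received 50 nL stock; many hits fall short of the cut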
# RanGTP-Imp inh – inhibitors of RanGTP-importin-beta interaction, primary screen, biochemical, FRET, CFP-Ran, YFP-importin-beta, homogeneous; inhibition, % (no concentration beside the values); cell-free CFP-Ran/YFP-importin-beta FRET ratio; 1.1% of 300,000 active;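 active = most replicates above 15%; inconclusive = exactly half above 15%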;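 note: 0% = DMSO wells and 100% = Ran loaded with GDP instead of GTP; wells of about 40 µL received 100 nL stock; the first replicate is given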
# LANA-H2A inh – blocks KSHV LANA binding to histone H2A/H2B; inhibition, % (test concentration not listed); cell-free LANA-H2A/H2B peptide, fluorescence polarization; 0.6% of 320,000 active; AID 2629; in the data active = inhibition mostly above about 10%, no sharp cut-off; inactive = mostly below about 6.7%;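 note: stock transfer was 7.5 nL into about 10 µL; 0% = median of vehicle wells and 100% = median of positive control wells; one replicate is shown; the record names a cut of 25% in any replicate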
# Target sequence (Q9QR71 whole entry, looked up): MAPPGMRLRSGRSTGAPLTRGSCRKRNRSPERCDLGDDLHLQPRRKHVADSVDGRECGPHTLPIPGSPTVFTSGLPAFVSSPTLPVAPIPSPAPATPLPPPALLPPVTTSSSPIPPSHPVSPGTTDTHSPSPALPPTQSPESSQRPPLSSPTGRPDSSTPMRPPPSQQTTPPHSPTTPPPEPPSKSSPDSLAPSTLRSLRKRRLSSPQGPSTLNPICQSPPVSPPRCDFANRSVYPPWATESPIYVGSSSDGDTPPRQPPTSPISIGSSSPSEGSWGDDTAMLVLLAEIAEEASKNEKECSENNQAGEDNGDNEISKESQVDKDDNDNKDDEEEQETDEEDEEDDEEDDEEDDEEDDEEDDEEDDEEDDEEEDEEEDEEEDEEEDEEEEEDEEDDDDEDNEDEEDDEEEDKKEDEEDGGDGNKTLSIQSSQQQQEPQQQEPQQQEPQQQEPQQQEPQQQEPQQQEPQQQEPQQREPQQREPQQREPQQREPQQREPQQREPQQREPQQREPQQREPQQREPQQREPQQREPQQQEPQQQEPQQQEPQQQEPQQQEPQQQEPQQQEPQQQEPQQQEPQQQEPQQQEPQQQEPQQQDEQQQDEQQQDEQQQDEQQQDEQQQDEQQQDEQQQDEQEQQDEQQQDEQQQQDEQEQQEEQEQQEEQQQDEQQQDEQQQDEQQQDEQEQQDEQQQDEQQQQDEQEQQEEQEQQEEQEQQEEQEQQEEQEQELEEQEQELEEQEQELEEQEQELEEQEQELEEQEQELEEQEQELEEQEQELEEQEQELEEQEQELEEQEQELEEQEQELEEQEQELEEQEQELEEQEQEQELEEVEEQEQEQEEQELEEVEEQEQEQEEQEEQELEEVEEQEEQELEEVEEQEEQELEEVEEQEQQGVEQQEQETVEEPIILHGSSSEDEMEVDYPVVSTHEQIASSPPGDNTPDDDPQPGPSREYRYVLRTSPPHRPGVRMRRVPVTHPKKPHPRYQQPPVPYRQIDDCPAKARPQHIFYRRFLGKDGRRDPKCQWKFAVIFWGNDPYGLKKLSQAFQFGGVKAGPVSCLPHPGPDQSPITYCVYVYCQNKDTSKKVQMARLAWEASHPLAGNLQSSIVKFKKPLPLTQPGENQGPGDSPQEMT
# Beta apoptosis – beta cell apoptosis inhibition | INS-1E cytokine-induced death, ATP luminescence, 48 h; percent of positive-control rescue, neutral wells zero | protection from apoptosis, % (no concentration beside the values) | 0.8% of 300,000 active | AID 435005;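 active = all replicates at 75% or more, or half of them and the mean; inconclusive = half reach 75% but not the mean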;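 note: 0% = cytokine-treated negative control wells and 100% = positive control rescue; higher means more ATP so stronger rescue from cytokine killing; wells of about 40 µL received 100 nL stock; the first replicate is given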
# The depositor's hits bear a star; ? = inconclusive; / = not tested or not shown; & = joins results of further samples.
SMILES	T cruzi repl	Vif A3G	AF4-AF9 inh	Calb FLC	A1 inh	RanGTP-Imp inh	LANA-H2A inh	Beta apoptosis
COc1ccc(S(=O)(=O)NCC(=O)N(CC(=O)NCC2CCCO2)c2c(C)cccc2C)cc1 (stereo not given)	/	-2%&-9%	/	-13	-0.1	/	2.1	-2
O=C1CC(=O)C(n2cncn2)C(c2c(F)cccc2Cl)C1 (stereo not given)	-9	-1%	/	-16	/	-1.0	7.2	-3
COc1cc(OC)c(OC)cc1CNC(=O)c1cc(=O)[nH]c2ccccc12	3	-6%	0.5	-19	1.6	-2.5	4.9	4
Cc1cc(=O)oc2cc(OCC(=O)N3CCN(C(=O)c4ccco4)CC3)ccc12	-6	-8%	-1.1	-1	-0.5	2.8	0.4	-10
CC(=O)NCC(=O)OCC(=O)c1ccc(C)cc1	-11	3%	/	6	0.7	-0.6	3.8	-9
CCN1CCN(CC(=O)Nc2cc(C)on2)CC1	15	/	-0.6	-8	-0.4	-2.6	4.3	/
CC(C)(C)NC(=O)NC(=O)C[n+]1ccc(Cc2ccc([N+](=O)[O-])cc2)cc1	13	-4%	2.3	1	1.2	-1.1	-0.9	29
C/C(=N\OC(=O)c1c(-c2ccccc2Cl)noc1C)c1nccs1	-5	/	3.3	7	-0.1	-1.0	-2.8	-3
CCCNCC(=O)Nc1cccc(S(=O)(=O)NC2=NCCCCC2)c1	/	-3%	-1.3	/	?	/	4.4	-15
CCCOc1ccc2c3c(c(=O)oc2c1OCCC)CCC3	17	4%	/	21	0.7	5.6	2.9	31
CN(C)C1=NC[C@H](Cc2ccccc2)N1CCc1ccc(F)cc1	/	/	2.7	/	0.1	/	-2.0	-9
O=C1CC(Cc2ccccc2)C(=O)N1Cc1ccco1 (stereo not given)	-2	7%	/	-3	-0.2	?	1.6	-4
Nc1nc(SCC(=O)Nc2ccccc2)[nH]c(=O)c1-c1ccccc1	-20	12%	-22	-13	-0.2	-3.1	2.6	3
CCOc1ccc(NC(=O)CN(C)C(=O)c2cc(-c3ccncc3)nc3ccccc23)cc1OCC	29	-10%	4.0	/	0.1	2.8	-1.0	6
COc1ccc(-c2csc3nc(C(C)(C)C)oc(=O)c23)cc1OC	-19	3%	-5.8	9	0.1	-3.0	3.3	-1
O=C(NCCNC(=O)c1ccc(Cl)cc1Cl)c1cnccn1	0	/	-0.6	5	0.3	-0.5	2.0	-6
CCOc1ccccc1N/C(=C(/C(Cl)=C(Cl)Cl)[N+](=O)[O-])n1cncn1	/	3%	13	/	0.7	/	1.5	0
Nc1cccc(-c2cn3cc(C(F)(F)F)cc(Cl)c3n2)c1	14	4%	/	27	-5.8	1.2	2.0	0
O=C(Nc1ccc(-n2cccn2)cc1)C1CCCCN1Cc1cccc2c1OCO2 (stereo not given)	2	2%	3.0	5	-0.7	2.7	-0.5	17
COC(=O)c1sc(S(=O)(=O)N2CCC(C)CC2)c(C(=O)OC)c1C	15	-2%	/	-5	-0.8	2.6	-1.2	1
CC(C)C(NC(=O)c1ccccc1)C(=O)NCCc1ccccc1 (stereo not given)	-4	0%	-1.6	-8	-0.3	3.5	2.3	4
Cc1cccc(C)c1NC(=O)CSC(=O)c1sc2ccccc2c1Cl	-15	-5%	-2.3	-3	-0.2	-1.1	0.2	1
COc1ccc(S(=O)(=O)Nc2cccc(/C=C/C(=O)O)c2)cc1	-6	/	/	-7	-0.5	-1.6	-1.7	-7
CC(=O)Nc1cccc(C(=O)OCC(=O)NNC(=O)c2cccs2)c1	-1	-2%	-7.3	-5	-0.1	5.6	-5.1	0
COC(=O)Nc1ccc(S(=O)(=O)N2CCC(Cc3ccccc3)CC2)cc1	18	-5%	/	4	-0.5	-2.0	0.3	-1
COc1ccc2nc(SCC(=O)N3CCN(c4ccc(F)cc4)CC3)c(C#N)cc2c1	26	-5%	/	-2	4.0	4.0	-2.7	-22
COc1cccc(-c2nc(-c3ccccn3)no2)c1	0	-2%	/	8	-8.6	4.1	-1.5	/
CCN(CC)S(=O)(=O)c1cc(C(=O)Nc2cccnc2)ccc1Cl	-2	24%	/	-11	0.2	-4.2	3.9	-3
Cc1ccc(NC(=O)Cc2ccccc2F)cc1S(=O)(=O)N1CCCCCC1	/	/	-1.2	/	-2.2	/	3.5	9
CC(NC(=O)c1ccc(S(=O)(=O)C(F)F)cc1)c1ccccc1 (stereo not given)	-13	-5%	-1.6	-4	-0.4	-5.1	9.1	-6
CCOC(=O)C1CCCCN1C(=O)CCc1nnc(-c2ccc3c(c2)OCO3)o1 (stereo not given)	8	/	-0.6	-13	0.0	-0.6	-3.1	0
CCCCN1C(Nc2ccccc2)=NC[C@@H]1CC(C)C	/	/	0.4	/	0.9	/	1.3	-2
O=c1[nH]c2ccccc2nc1/C=C/c1ccc(O)cc1	-84	11%	-2.4	-6	/	?	/	/
COc1ccc(CCNC2CC(=O)N(CCc3ccc(OC)c(OC)c3)C2=O)cc1OC (stereo not given)	-12	5%	/	3	/	-0.4	/	/
CN(Cc1ccc(C(C)(C)C)cc1)C(=O)Cc1ccc(S(=O)(=O)N2CCOCC2)s1	/	-6%	0.1	/	-0.4	/	-1.3	2
COc1ccc(N2C(=O)CC(Sc3nc(C)c4c(n3)CCCC4)C2=O)cc1 (stereo not given)	-13	70%	/	?	-0.3	3.2	0.6	-6
COc1cccc(C2N=C(c3ccccc3C)NO2)c1OC (stereo not given)	-9	-18%	-1.8	-10	0.0	0.3	-2.4	-1
O=[N+]([O-])c1ccc(C(O)C[n+]2ccccc2)cc1 (stereo not given)	-9	/	/	-2	0.2	6.8	2.5	2
CC12CCC(=O)N1C(C(=O)NNC(=O)c1ccccc1Cl)CS2 (stereo not given)	/	-5%	-0.7	/	0.3	/	7.7	-7
O=C(O)c1cccc(N2C(=O)c3cccnc3C2=O)c1	-32	?	/	-1	-1.1	0.0	-3.0	-1
CCOC(=O)C1(Cc2cccc(Cl)c2)CCCN(C(=O)c2ccco2)C1 (stereo not given)	-16	/	-0.5	5	-1.2	3.1	4.2	-3
COc1ccc(CCNC(=O)CSc2nnc(Cc3csc(N)n3)n2C)cc1OC	-20	-4%&-3%	/	2	0.8	7.0	2.3	3
O=C(O)CCn1cc(-c2ccc(Cl)cc2)nc1-c1ccc(Cl)nc1	/	/	-2.0	/	-0.5	/	-6.4	-4
COc1cc(OC)c2ccc(=O)oc2c1C(CCN1CCCC1)c1ccc(N(C)C)cc1 (stereo not given)	8	-3%	/	-19	0.9	1.7	1.2	-14
COC(=O)Nc1ccc(S(=O)(=O)N2CCCC(C(=O)N3CCC(C)CC3)C2)cc1 (stereo not given)	9	2%	2.1	-24	1.6	-1.6	5.7	-2
O=C(NCCCn1ccnc1)c1cc2cc([N+](=O)[O-])ccc2oc1=O	5	30%	/	-10	0.1	1.5	-2.4	-5
O=c1ccc(Cc2ccccn2)n[nH]1	-4	20%	/	-2	-0.3	2.1	5.5	-5
O=S(=O)(c1ccc(S(=O)(=O)N(Cc2cccs2)CC2CCCO2)cc1)N1CCCCC1 (stereo not given)	29	-6%&1%	/	5	/	3.3	/	/
CCOC(=O)CCCSc1nc(-c2ccc3c(c2)OCO3)cc(C(F)(F)F)c1C#N	-11	-54%	/	4	0.2	2.8	-0.6	-4
Cc1cc(C)c(N=C2SCC(=O)N2Cc2ccco2)c(C)c1	2	?	-1.0	3	0.9	-1.7	-6.7	/
O=C(O)Cn1nc2ccccc2n1	6	-4%	/	-6	-0.2	0.4	1.6	0
COC(=O)C1=C(C)NC(C)=C(C(=O)OC)C1c1ccccn1	4	-2%	0.6	-9	-0.2	0.1	0.2	-3
Nc1ccc(-c2c3ccccc3nc3ccccc23)cc1	-11	-10%	1.5	8	0.2	?	2.6	-7
CCC(C)(C)n1nnnc1CN1CCC(NC(=O)c2ccccc2C)CC1	-11	-1%	/	?	0.1	3.2	2.5	0
CC(=O)Nc1ccc(C(=O)CN2C(=O)NC3(CCCc4ccccc43)C2=O)c(F)c1 (stereo not given)	/	-1%	0.2	/	3.2	/	3.8	4
Cc1cccc(NC(=O)c2sc3ncn(CC(=O)N4CCN(c5ccccn5)CC4)c(=O)c3c2C)c1	5	/	-1.2	-2	0.7	4.1	2.3	/
COC(=O)C(CC(=O)O)NCc1ccco1 (stereo not given)	8	/	0.8	-5	0.2	-1.7	6.5	-1
Cn1c(N)c(C(=O)COC(=O)c2cc(C(F)(F)F)nc3ccccc23)c(=O)n(C)c1=O	23	22%	1.9	6	0.1	7.3	-2.8	-10
CCCCn1c(N)c(N(CCC(C)C)C(=O)c2cc(Cl)nc3ccccc23)c(=O)[nH]c1=O	/	3%	1.2	/	0.5	/	-4.2	-2
Cc1ccc(Cl)cc1N1CCN(S(=O)(=O)c2ccc3c(c2)oc(=O)n3C)CC1	46	15%	/	43	0.2	-0.2	1.7	-3

# Other structures:
SMILES	T cruzi repl	Vif A3G	AF4-AF9 inh	Calb FLC	A1 inh	RanGTP-Imp inh	LANA-H2A inh	Beta apoptosis
CCC(=O)Nc1cc(C(F)(F)F)ccc1N1CCCC1	5	-8%	-1.3	6	0.1	-1.8	4.7	0
COc1ccc2c(=O)cc(-c3ccccc3F)oc2c1	/	26%	0.5	13	-0.8	0.4	-0.3	-6
COc1ccc(-n2cc(-c3ccccc3)c3c(=O)[nH]cnc32)cc1	-21	-4%	5.7	57	0.4	2.2	3.2	-13
Cc1ccc2nc(Cl)c(/C=C/C(=O)c3ccco3)cc2c1	-5	-5%	-0.3	10	-1.1	0.8	2.0	-5
CCOc1ccc(OCC(O)CNC2CCN(Cc3ccccc3)CC2)cc1 (stereo not given)	57*	17%	/	0	-0.8	3.1	-1.3	-2
Cc1noc(C)c1COc1cccc(C(=O)NCc2ccccc2Cl)c1	22	-5%	/	-2	0.0	-1.2	3.1	/
COc1cccc(C(=O)OCC(=O)NCCc2ccccc2)c1OC	-2	21%	/	-3	-0.5	9.0	-3.7	-6
CCOc1ccc(Br)cc1C(=S)N1CCCC1	0	-2%	-0.9	17	0.2	?	0.1	4
CCCNC(=S)N1CCC(NC(=O)c2cccc(C)c2)CC1	-3	/	-3.5	-4	0.8	-2.3	7.3	-1

# Reprinted at random: three records from the list, in no set order.
SMILES	T cruzi repl	Vif A3G	AF4-AF9 inh	Calb FLC	A1 inh	RanGTP-Imp inh	LANA-H2A inh	Beta apoptosis
CCOc1ccc(OCC(O)CNC2CCN(Cc3ccccc3)CC2)cc1 (stereo not given)	57*	17%	/	0	-0.8	3.1	-1.3	-2
COc1cccc(C(=O)OCC(=O)NCCc2ccccc2)c1OC	-2	21%	/	-3	-0.5	9.0	-3.7	-6
Cc1ccc2nc(Cl)c(/C=C/C(=O)c3ccco3)cc2c1	-5	-5%	-0.3	10	-1.1	0.8	2.0	-5

# Screening results (PubChem BioAssay)
